Screening data deposited in PubChem by National Center for Advancing Translational Sciences (NCATS).
StopGo reporter – High Throughput Screening for Foot and Mouth Disease Virus Antivirals | Potency, µM (top dose mostly 57.9 µM), without a hit: at the top dose signal change, negative = less light | AID 1159524, 2015 | human cells with a luciferase reporter of 2A StopGo recoding; control for the full effect not named in the record | 410,000 compounds, 1.2% hits; active = well fitted falling curve with a large enough effect; inconclusive = small, poorly fitted or top-dose-only effect; inactive = no such curve, though single readings can be large or run the other way; tested in HEK293T cells; further: on the % scale 0 is the no-effect control and ±100 the full control effect; nearly all actives have a fitted effect of over 45% in size; luciferase light after 4 h
NS1 function inh – qHTS Assay for Inhibitors of Influenza NS1 Protein Function; S. cerevisiae slowed by influenza A NS1, growth recovery by OD600; Potency, µM (series often up to 46.1 µM), for the others: top-dose activity, positive = more growth; AID 2326, 2010; 270,000 compounds, 0.4% hits; active means well fitted rising curve with a large enough effect; inconclusive means small, poorly fitted or top-dose-only effect; inactive means no such curve, though single readings can be large or run the other way; further: nearly all actives have a fitted effect of over 50% in size
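S. cerevisiae expressing influenza A NS1, grown in glucose, washed, then diluted 1:100 into pH 6.0 -URA galactose medium with 23 nl compound. Growth recovery read as OD600; NS1-free strain serves as control.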
Cruzain noTriton – qHTS Assay for Promiscuous and Specific Inhibitors of Cruzain (without detergent) | purified cruzain, Z-FR-AMC fluorescence, no detergent | Potency, µM, for the others: max response, negative = inhibition, hits mostly inhibitors | 200,000 compounds, 2.3% hits;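 further: plate controls were enzyme without inhibitor for no effect and buffer without enzyme for full effect; nearly all actives have a fitted effect of over 40% in size; top concentration of the series not given in the record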
Target sequence (P25779 123-467 limits assumed): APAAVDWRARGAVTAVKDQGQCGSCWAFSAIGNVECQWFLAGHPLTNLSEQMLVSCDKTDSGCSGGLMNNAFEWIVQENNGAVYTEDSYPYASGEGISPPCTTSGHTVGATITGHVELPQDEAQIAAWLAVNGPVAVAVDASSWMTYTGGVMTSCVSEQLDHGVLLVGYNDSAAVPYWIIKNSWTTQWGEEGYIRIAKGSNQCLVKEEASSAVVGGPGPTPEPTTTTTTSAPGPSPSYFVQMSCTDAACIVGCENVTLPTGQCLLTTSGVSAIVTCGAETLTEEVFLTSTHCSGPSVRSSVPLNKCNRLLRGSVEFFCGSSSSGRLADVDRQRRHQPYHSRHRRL
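Detergent-free condition (0.00005% Triton X-100) in acetate buffer pH 5.5 with DTT. 1.5 nM enzyme and compound were pre-mixed 15 min, then 2 uM Z-FR-AMC substrate added; reaction progress from fluorescence change between first and third reads (60 s).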
SARS PLP yeast – qHTS of Yeast-based Assay for SARS-CoV PLP; S. cerevisiae expressing SARS-CoV PLpro, growth rescue; control for the full effect not named in the record; Potency, µM (top dose mostly 32.9 µM), inactives show at the highest dose activity, positive = growth rescue; 330,000 compounds, 0.19% hits; AID 485353, 2010; active means well fitted rising curve with a large enough effect; inconclusive means small, poorly fitted or top-dose-only effect; inactive means no such curve, though single readings can be large or run the other way; further: 0% is about no effect; nearly all actives have a fitted effect of over 55% in size; growth read by luminescence after 48 h
Cruzain inh Det – qHTS Assay for Promiscuous and Specific Inhibitors of Cruzain (with detergent) | Cruzipain (Trypanosoma cruzi), P25779 | AID 1478, 2009 | 200,000 compounds, 0.43% hits | purified cruzain, Z-FR-AMC fluorescence, 0.01% Triton | Potency, µM, for the others: max response, negative = inhibition, hits mostly inhibitors;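 further: plate controls were neutral wells for no effect and buffer without enzyme for full effect; nearly all actives have a fitted effect of over 40% in size; top concentration of the series not given in the record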
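Purified cruzain (1.5 nM final) was preincubated with compounds for 15 min at room temperature in 100 mM sodium acetate pH 5.5, 5 mM DTT, 0.01% Triton X-100. Reaction started with 2 uM Z-FR-AMC; AMC fluorescence change over 60 s gave activity.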
MARV entry inh – qHTS for inhibitors of binding or entry into cells for Marburg Virus; Marburg virus pseudotyped entry inhibition, cell reporter; control for the full effect not named in the record; about a third of the inactives were read at about 46 µM; Potency, µM (titrated, usually from 37.8 µM), inactives show at the highest dose activity change, negative = inhibition, usual class: inhibitors; 300,000 compounds, 1.8% hits; AID 540276, 2011; active = well fitted inhibition curve with a large enough effect; inconclusive = small, poorly fitted or top-dose-only effect, or effect the other way; inactive = flat fitted curve, though single readings scatter; tested in HEK293 cells; about a fifth of its hits are not listed in these tables; further: on the % scale 0 is the no-effect control and ±100 the full control effect; luciferase read-out
LASV entry inh – qHTS for Inhibitors of binding or entry into cells for Lassa Virus | AID 540256, 2011 | Lassa virus pseudotype entry inhibition, cell reporter; control for the full effect not named in the record | 300,000 compounds, 1.2% hits | Potency, µM (doses to about 37.9 µM), for inactives: at the highest dose activity change, negative = inhibition, most hits filed as inhibitors; active means well fitted inhibition curve with a large enough effect; inconclusive means small, poorly fitted or top-dose-only effect, or effect the other way; inactive means flat fitted curve, though single readings scatter; tested in HEK293 cells; further: on the % scale 0 is the no-effect control and ±100 the full control effect; nearly all actives have a fitted effect of over 50% in size; luciferase read-out
RE007 growth inh – qHTS Assay for Inhibitors of the HIV-1 protein Vpr; S. pombe RE007 Vpr strain, BacTiter-Glo ATP luminescence, 24 h; control for the full effect not named in the record; AID 651644, 2012; Potency, µM (series often up to 92.2 µM), for the others: at the top dose activity change, negative = less growth; 360,000 compounds, 0.21% hits; active = well fitted falling curve with a large enough effect; inconclusive = small, poorly fitted or top-dose-only effect; inactive = no such curve, though single readings can be large or run the other way;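 further: on the % scale 0 is the no-effect control and ±100 the full control effect; nearly all actives have a fitted effect of over 50% in size; the assay follows cell death caused by Vpr and the record does not say whether a fall means rescue or toxicity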
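Fission yeast RE007 carrying one integrated HIV-1 vpr copy, seeded at OD 0.01 in PMG+AL medium with 23 nL pinned compound. Grown 24 h at 30 degrees; viability read by BacTiter-Glo luminescence after 5 min.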
* hit, by the source's call; u = inconclusive; x = no result given; & = joins results of further samples; [ ] = another dose, or the depositor's remark. Unless noted, the call rests on the fitted dose curve; in most records, active means well fitted curve in the direction sought with a large enough effect; inconclusive means small, poorly fitted or top-dose-only effect, or another doubt; inactive means no such curve, though single readings can be large; an effect the other way counts as inactive or inconclusive. Potency means the concentration at half of the fitted maximal effect.

SMILES	StopGo reporter	NS1 function inh	Cruzain noTriton	SARS PLP yeast	Cruzain inh Det	MARV entry inh	LASV entry inh	RE007 growth inh
COc1ccc(C(=O)c2sc3nc(-c4ccc(OC)cc4)ccc3c2N)cc1	2%	13%	u	14%	-4.0%	3%[46.1 µM]	u	10%
CN(CC(=O)Nc1ccc(Cl)cc1)S(=O)(=O)c1ccc2c(c1)n(C)c(=O)c(=O)n2C	1%	-5%	x	-2%	x	26%[46.1 µM]	21%[46.1 µM]	-6%
c1ccc(CCc2nc(-c3cccnc3)no2)cc1	42%[activator]	-21%	5%	-2%	1.1%	3%[46.1 µM]	4%	-2%
COc1cc(C(=O)NC2CCN(CC(=O)Nc3cccc(C)c3C)CC2)cc(OC)c1OC	3%	-7%	x	-4%	x	-4%[46.1 µM]	21%[46.1 µM]	-3%
O=C(NC(=S)Nc1ccccc1N1CCOCC1)c1ccco1	u	-5%	-4%	-12%	-6.5%	-14%	0%	-7%
COc1ccc2nc(NC(=O)c3cc(S(=O)(=O)N4CCOCC4)ccc3C)sc2c1	-28%	2%	u	-7%	-22%	2%	-24%	-3%
CC1CCN(C(=O)Cn2c(=O)n(CCCCCC(=O)NCc3ccccc3Cl)c(=O)c3sccc32)CC1	u	x	-13%	x	-11%	u	u	x
CCCCc1cc(=O)oc2cc(OCC(=O)NC3CCN(Cc4ccccc4)CC3)ccc12	-16%	10%	x	-2%	x	x	x	-9%
CCOC(=O)N1CCN(C(=O)CSCC(=O)N=c2sc3ccccc3n2C)CC1	u	-1%	-6%	x	-4.8%	-23%	u	-9%
CCCCOC(=O)C1C2C=C[C@]3(CN(C(C)c4ccc(OC)cc4)C(=O)[C@H]13)O2 (stereo partly drawn)	-24%	-5%	9%	4%	-2.2%	-10%	13%	-1%
CCCc1cc(=O)[nH]c(Nc2cccc(Cl)c2Cl)n1	3%	x	-24%	x	-17%	14%[46.1 µM]	7%[46.1 µM]	x
CCCC1CC(C#N)N(N(C)C)C1=C(C#N)C#N (stereo not drawn)	-10%	0%	x	6%	x	3%	2%	18%
CC1=C(C(=O)Nc2ccccn2)C(c2cn(C)nc2C)C2=C(CCCC2=O)N1 (stereo not drawn)	16%	3%	x	1%	x	0%[46.1 µM]	11%	10%
CC1(C)CC(=O)C(C=NCCc2ccccn2)=C(O)C1	15%	1%	-2%	2%	-4.0%	-8%	u	3%
COc1cc(/C=N/NC(=O)c2ccccc2O)ccc1OCC(=O)Nc1ccccc1	1%	-2%	x	1%	x	x	x	1%
O=C(c1ccco1)N1CCC(c2nc3c(nnn3Cc3c(Cl)cccc3Cl)c(=O)[nH]2)CC1	14%	0%	x	2%	x	-9%[46.1 µM]	-15%[46.1 µM]	4%
O=C(c1ccc(O)c(Cl)c1)N1CCN(S(=O)(=O)c2ccccc2)CC1	0%	9%	x	u	x	14%	-12%	-10%
CCS(=O)(=O)c1ccc(O)c(NC(=O)/C=C/c2ccc(Cl)cc2)c1	-25%	2%	x	2%	x	u	u	8%
Cc1cc(C)cc(N(C(=O)c2snc(C(N)=O)c2N)C(C(=O)NCC2CCCO2)c2cccs2)c1 (stereo not drawn)	-11%	x	x	1%	x	u	u	4%
COc1ccc(S(=O)(=O)c2c(Nc3ccc(C)cc3)sc(C(=O)c3ccc4c(c3)OCO4)c2N)cc1	-7%	x	3.2µM*	x	-1.8%	x	-1%[46.1 µM]	x
O=C(CNC(=O)c1ccc(Cl)cc1Cl)NCC(=O)Nc1ccccc1N1CCOCC1	-25%	-8%	10%	4%	0.6%	-7%	0%	4%
CC1=CCP(=O)(c2ccccc2)C1 (stereo not drawn)	-17%	u	3%	-22%	-4.7%	7%	16%	-5%
Cc1ccc(C)c2nc(N3CCCC3)c(C#N)cc12	-13%	-4%	-15%	-14%	-9.6%	1%[46.1 µM]	-4%	-9%
CC(C)N1CCN(CC2COc3ccccc3O2)CC1 (stereo not drawn)	-2%	4%	x	1%	x	x	x	-23%
CC1=NN(Cc2ccccc2)C(=O)C1C(c1ccccc1)C(C#N)C#N (stereo not drawn)	-7%	29%	5%	0%	-0.6%	u	-19%	-15%
Cc1cccc(NC(=O)N(Cc2nc3ccccc3c(=O)[nH]2)C2CCCC2)c1	-6%	-8%	-3%	-6%	2.7%	0%[46.1 µM]	-15%	14%
CC(=O)Nc1ccc(S(=O)(=O)N2CCN(c3ccccn3)CC2)cc1	-25%	6%	-2%	19%	2.1%	1%	-12%	-2%
C=C(c1ccc(OCCO)cc1)c1ccc(OCCO)cc1	-9%	7%	-14%	4%	-2.3%	u	-2%	-1%
C/C(=N\NC(=O)C(N)=O)c1ccc(NC(=O)c2cccs2)cc1	52%[activator]	-10%	x	-1%	x	-5%[46.1 µM]	10%	-36%
CCC(C)OC(=O)n1ccc(C(=O)Nc2nccs2)n1 (stereo not drawn)	x	-11%	4%	-7%	-1.2%	7%	21%	10%
COc1ccc(NC(=O)C(NC(=O)c2ccc(=O)[nH]c2)c2ccc(C)cc2)cc1 (stereo not drawn)	-22%	-10%	12%	5%	-1.5%	u	-9%	-5%
CC1(C)CC(=O)C2=C(C1)OC1=C(C(=O)CC(C)(C)C1)C2c1cc([N+](=O)[O-])cc([N+](=O)[O-])c1O	0%	7%	x	-1%	x	1%[46.1 µM]	u	-8%
Cc1ccc(-c2oc3ncnc(N)c3c2-c2ccc(C)cc2)cc1	16%	3%&-61%	-9%	24%	-2.0%	-22%&-22%	1%	20%
O=C(N/N=C/c1cccc(O)c1)N/N=C/c1cccc(O)c1	23%	-7%	x	1%	x	u	u	-2%
COc1ccc(OC)c(S(=O)(=O)N(C)CC(=O)Nc2ccc3c(c2)OCO3)c1	23%	0%	-11%	0%	0.5%	8%	2%	1%
O=C(O)CNc1ccccc1C(=O)O	-6%	-2%	x	0%	x	x	x	-7%
CC(C)Sc1nc2ncnc(N)c2[nH]1	-3%	x	x	2%	x	5%[46.1 µM]	1%	-19%
C=CCn1c(O)c(/C=C/C=Nc2ccccc2)c(=O)[nH]c1=O	-26%	-6%	-10%	0%	-8.7%	-1%	-3%	-13%
CCOc1ccccc1NC(=S)N1CCN(c2cccc(OC)c2)CC1	-8%	-4%	x	3%	x	x	x	-11%
Cc1cc(SCC(=O)N/N=C/c2ccc(O)c(O)c2)nc2ccccc12	3%	-24%	x	-7%	x	u	u	-11%
O=c1ccc(-c2ccc(S(=O)(=O)Nc3cccc([N+](=O)[O-])c3)s2)n[nH]1	39%[activator]	12%	x	3%	x	x	x	3%
CCCCN(C(=O)c1cccc(-n2cccc2)c1)c1c(N)n(CCCC)c(=O)[nH]c1=O	-9%	x	x	-1%	x	-7%[46.1 µM]	-17%	-14%
Cc1cccc(OCC(=O)NC(=S)Nc2ccc(S(=O)(=O)NC3CCCCC3)cc2)c1	-18%	2%	u	-5%	-4.6%	10%	-17%	4%
CCOc1ccc(N2C(=O)CN(c3cccc4ccccc34)C2=S)cc1	18%	x	x	1%	x	-27%[46.1 µM]	-23%	-3%
Cc1[nH]c(N=Nc2ccccc2)nc1N=Nc1ccccc1	-5%	-56%	x	-7%	x	u	u	5%
Cc1ccc(CSCc2ccc(C(=O)NCCC(C)C)o2)cc1	-5%	-1%	x	-1%	x	u	u	-1%
CNC(=O)c1cc(C(=O)c2ccc(C(F)(F)F)cc2F)c[nH]1	-5%	x	x	-2%	x	27%[46.1 µM]	-1%	-7%
CCN(CC)C(=S)NC(=O)C12CC3CC(CC(C3)C1)C2	11%	1%	x	6%	x	-3%[46.1 µM]	3%	1%
Cc1cnc(C(=O)OCC(=O)Nc2ccc(C)c(S(=O)(=O)N(C)C)c2)cn1	61%[activator]	10%	x	-8%	x	x	x	-1%
O=C(c1ccc(-c2ccc([N+](=O)[O-])cc2)o1)N1CCN(S(=O)(=O)c2cccs2)CC1	u	x	x	-1%	x	-9%	-12%	0%
CCN(c1ccc(NC(=O)COC(=O)c2ccc(C)s2)cc1)C(C)C	-9%	x	x	1%	x	-4%[46.1 µM]	12%[46.1 µM]	13%
CC(C)n1cc(C(=O)N(CC(=O)NC(C)(C)C)Cc2ccccc2)cn1	5%	-2%	4%	13%	1.4%	6%	-1%	6%
CCOC(=O)CCCc1ccc(/C(C)=N/NC(N)=S)cc1	-25%	-53%	x	21%	x	u	u	3%
Cc1ccc(S(=O)(=O)N2CCOCC2)cc1C(=O)Nc1ccc(N2CCCCCC2)cc1	-13%	x	x	4%	x	u	u	0%
Cc1cc(C(=O)NC2CCCCCCC2)ccc1[N+](=O)[O-]	24%	x	x	x	x	3%[46.1 µM]	-23%[46.1 µM]	2%
CC(C)CC(=O)N1CCN(Cc2ccc(Cl)cc2)CC1	-25%	-10%	x	3%	x	-5%&-5%	u	3%
Cc1cccc2c(CC(=O)O)noc12	-15%	-9%	1%	6%	-0.3%	9%	-6%	0%
CCc1nnc(NS(=O)(=O)c2ccc(NC(=O)c3cccc(OC(F)(F)C(F)F)c3)cc2)s1	0%	x	x	x	x	4%[46.1 µM]	2%	-24%
O=C(COc1ccc(Cl)cc1)Nc1ccc(Cl)cn1	3%	1%	u	-8%	-0.8%	19%	u	-15%
COc1ccccc1CCc1nnc(CCC(=O)NC(C)Cc2cccs2)o1 (stereo not drawn)	12%	-5%	x	1%	x	-1%[46.1 µM]	-2%	6%
COc1cc2c(c(OC)c1OC)-c1c(cc3c(c1O)OCO3)C[C@@H](C)[C@@H](C)C2	u	-59%	x	-13%	x	x	x	-7%
Cc1cc(C)c(NC(=O)c2ccc(CN3CCc4ccccc4C3)cc2)c(C)c1	u	2%	4%	-5%	1.2%	u	16µM*	-5%

Not a hit list; about 4.8% have a hit in one of these screens.
